# Bioassay records (PubChem)
# hIAP block: blocks human intestinal alkaline phosphatase. P09923. 330,000 compounds, 0.12% hits. purified IAP, CDP-Star luminescence, 30 min. AID 2544. inhibition, % at 10 µM;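 active means inhibition reaching a set limit with compound at 10 µM in the primary screen, cut at about 35% in these data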;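 further: plate controls were DMSO wells with enzyme for no effect and no-enzyme buffer wells for full effect; values of inactives mirror those of a sister screen read the other way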
# Target sequence (P09923 whole entry, looked up): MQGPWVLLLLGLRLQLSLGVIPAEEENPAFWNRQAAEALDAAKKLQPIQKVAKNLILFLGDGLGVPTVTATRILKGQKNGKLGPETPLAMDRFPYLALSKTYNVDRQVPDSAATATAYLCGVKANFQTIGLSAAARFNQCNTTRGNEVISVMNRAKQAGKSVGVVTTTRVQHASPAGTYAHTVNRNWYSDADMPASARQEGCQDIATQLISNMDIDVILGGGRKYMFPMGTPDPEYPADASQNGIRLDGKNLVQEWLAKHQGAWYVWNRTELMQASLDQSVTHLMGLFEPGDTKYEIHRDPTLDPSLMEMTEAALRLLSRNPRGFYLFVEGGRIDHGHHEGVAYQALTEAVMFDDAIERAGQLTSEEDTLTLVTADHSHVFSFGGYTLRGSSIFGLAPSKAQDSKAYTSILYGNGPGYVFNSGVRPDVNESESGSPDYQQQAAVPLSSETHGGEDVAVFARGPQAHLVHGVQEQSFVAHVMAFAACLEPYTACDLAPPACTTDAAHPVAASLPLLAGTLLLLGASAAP
# NALP3 yeast inh: NALP3 inhibition in yeast; AID 2825; 330,000 compounds, 0.39% hits; Yeast reconstituted NLRP3/ASC/caspase-1, beta-gal luminescence, 24 h; inhibition, % at 10 µM;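 active means inhibition of 50% or more; inactive means inhibition below 50%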;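 further: plate controls were induced DMSO wells for no effect and uninduced yeast grown without galactose for full effect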
# mIAP block: blocks mouse intestinal alkaline phosphatase | purified mouse IAP, CDP-Star luminescence, 30 min | inhibition, % at 10 µM | 330,000 compounds, 0.2% hits;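 active means inhibition of at least 40% at 10 µM in the primary screen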;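 further: plate controls were DMSO with enzyme for no effect and no enzyme wells for full effect; values of inactives mirror those of a sister screen read the other way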
# hIAP activ: increases human intestinal alkaline phosphatase activity | P09923 | purified human IAP, CDP-Star luminescence, 30 min; stronger effect = higher value; 1 = vehicle-only enzyme, 0 = enzyme-free background | activation factor at 10 µM | 330,000 compounds, 0.16% hits | AID 2524;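 active means activation factor of the enzyme at least 2-fold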; further: the source names both 10 and 20 µM as test concentration; values of inactives mirror those of a sister screen read the other way
# tim10-1 inh: tim10-1 yeast growth inhibition | inhibition, % at 20 µM | 330,000 compounds, 2.2% hits | S. cerevisiae tim10-1 ts strain growth, BacTiter-Glo, 24 h | AID 463190;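 active means inhibition of at least 40%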;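 further: mutant grown at 25 °C; 0% = DMSO wells with yeast and 100% = wells holding no yeast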
# mIAP act: increases mouse intestinal alkaline phosphatase activity | muIAP, CDP-Star luminescence, 30 min; stronger effect = higher value; 1 = vehicle-only enzyme signal, 0 = enzyme-free wells | activation factor at 10 µM | 330,000 compounds, 0.24% hits | AID 2805;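 active means activation factor of at least 2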; further: the source names both 10 and 20 µM as test concentration; values of inactives mirror those of a sister screen read the other way
#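 Assay system: mouse IAP enzyme / Compound: DMSO-dissolved test compounds / Timing: 30 min, room temperature / Measured by: luminescence from enzymatic CDP-Star hydrolysis / Control set: DMSO-only wells, enzyme-free buffer wells as negative control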
# ATG4B inh: ATG4B (human) cysteine protease inhibition; Q9Y4P1; ATG4B cleavage of LC3-PLA2, NBD-HPC fluorescence, 1 h; inhibition, % at 8.33 µM; 340,000 compounds, 0.51% hits; in the data active means inhibition above about 40%
# Target sequence (Q9Y4P1 whole entry, looked up): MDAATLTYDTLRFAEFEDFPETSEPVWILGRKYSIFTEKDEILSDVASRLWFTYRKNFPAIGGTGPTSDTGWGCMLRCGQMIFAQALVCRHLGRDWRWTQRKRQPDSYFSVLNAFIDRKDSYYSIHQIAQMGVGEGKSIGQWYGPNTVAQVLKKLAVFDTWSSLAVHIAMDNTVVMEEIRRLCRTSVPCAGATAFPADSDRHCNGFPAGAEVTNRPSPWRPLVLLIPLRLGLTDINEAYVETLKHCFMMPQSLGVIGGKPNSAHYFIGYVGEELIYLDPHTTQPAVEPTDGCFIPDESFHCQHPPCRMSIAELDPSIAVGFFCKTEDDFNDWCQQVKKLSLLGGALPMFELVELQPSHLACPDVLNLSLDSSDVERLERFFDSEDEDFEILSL
# TIM10 inh: inhibits growth of TIM10 yeast strain | S. cerevisiae TIM10 strain growth, BacTiter-Glo luminescence, 24 h | inhibition, % at 10 µM | 330,000 compounds, 1.4% hits;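 active means inhibition of 40% or more at the single tested concentration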;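 further: wild-type TIM10 isogenic control strain grown at permissive 25 °C; 0% = DMSO yeast wells and 100% = minimal medium wells without yeast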
# The depositor's hits bear a star; . = no result given. A portion of the library. The share of hits here may be higher or lower than overall.
Compound | hIAP block | NALP3 yeast inh | mIAP block | hIAP activ | tim10-1 inh | mIAP act | ATG4B inh | TIM10 inh
CCc1ccc2[nH]c(=O)c(CN(Cc3nnnn3C3CCCC3)C3CCCCC3)cc2c1 | 1 | 9 | -2 | 0.99 | 14 | 1 | -6 | -4
N=C(N)c1ccc(OCCCCCOc2ccc(C(=N)N)cc2)cc1 | -2 | 34 | -1 | 1 | 18 | 1 | 1 | -22
CCn1nc(NC(=O)c2ccccn2)c2cc3cccc(C)c3nc21 | -2 | 1 | 7 | 1 | 0 | 0.93 | -6 | 21
COC(=O)Cc1c(C)c2ccc(OC(=O)c3ccco3)cc2oc1=O | -14 | 3 | -4 | 1.1 | 39 | 1 | -7 | 34
CCOC(=O)c1cc2c(=O)n3ccccc3nc2n(CCOC)c1=NC(=O)c1ccncc1 | -13 | 8 | -12 | 1.1 | -9 | 1.1 | -2 | -8
Cc1cc(NC(=O)CCCC(=O)NCc2cccs2)no1 | -4 | 5 | 2 | 1 | 1 | 0.98 | -10 | -10
COc1ccc2nc3c(cc2c1)c(NC(=O)C1CCCO1)nn3CC(C)C (stereo not drawn) | -16 | 7 | -70 | 1.2 | 4 | 1.7 | 2 | -9
Cn1nc(-c2ccccc2)c2nc3ccccc3nc21 | 7 | 2 | -1 | 0.93 | 16 | 1 | -4 | 24
CCN(CC)c1nc2ccccc2nc1C(C#N)C(=O)NCCCOC (stereo not drawn) | -10 | 27 | -4 | 1.1 | 23 | 1 | -2 | 3
CCOC(=O)CNc1c(-c2ccc(F)cc2)nc2cnccn12 | 3 | -11 | 6 | 0.97 | 11 | 0.94 | -8 | 10
c1csc(-c2cnc3ccccc3n2)c1 | 0 | -13 | 4 | 1 | 20 | 0.96 | -6 | 14
CC1=C(C(=O)OCC2CCCO2)C(c2ccccc2OC(C)C)C2=C(CC(c3ccco3)CC2=O)N1 (stereo not drawn) | -14 | 3 | -10 | 1.1 | 21 | 1.1 | -10 | 10
Cc1cccc(NC(=O)c2sc3nc(-c4ccccc4)cn3c2C)n1 | -7 | 13 | -3 | 1.1 | 2 | 1 | -7 | -4
N#CC1=C(N)SC(N)=C(C#N)C1c1ccoc1 | 8 | 14 | 77* | 0.92 | 13 | 0.23 | . | -1
COc1cc2cc(C(=O)Nc3ccccc3)c(N)nc2cc1OC | 19 | 15 | -26 | 0.81 | -1 | 1.3 | -14 | -1
CC(C)n1c2ccccc2c2nc3ccccc3nc21 | 9 | -31 | 12 | 0.91 | 37 | 0.88 | 32 | 20
N#Cc1c(NC(=O)c2ccc(Br)o2)n(-c2ccccc2)c2nc3ccccc3nc12 | -10 | -5 | 2 | 1.1 | 8 | 0.98 | 13 | 10
CCCCn1c(NC(=O)c2ccccc2Cl)c(C#N)c2nc3ccccc3nc21 | 7 | 2 | 13 | 0.93 | 26 | 0.87 | 32 | 26
N#Cc1cc2c(=O)n3ccccc3nc2n(CCCn2ccnc2)c1=N | 8 | 11 | 1 | 0.92 | -2 | 0.99 | 0 | 4
O=C(CN1C(=O)C2CC=C(Cl)CC2C1=O)NCc1ccccc1 (stereo not drawn) | -26 | -6 | -2 | 1.3 | 11 | 1 | 3 | 4
N#Cc1cc2cc3c(cc2nc1N1CCCCC1)OCCO3 | 8 | 0 | 4 | 0.92 | 7 | 0.96 | 2 | 4
CCCn1c(NCc2cc(OC)ccc2OC)nc2ccccc21 | -4 | 0 | 1 | 1 | 0 | 0.99 | -2 | -9
COCCOC(=O)C1=C(C)NC2=C(C(=O)CC(C)(C)C2)C1c1cccnc1 (stereo not drawn) | 12 | 4 | -5 | 0.88 | 7 | 1.1 | -6 | 4
CCN(C(=O)c1coc(=O)c(Br)c1)c1ccc2c(c1)OCO2 | 0 | 18 | 9 | 1 | 15 | 0.91 | -7 | 15
Cc1ccc(-c2cc(-c3ccccc3Cl)c(C#N)c(N)n2)o1 | 1 | 7 | 10 | 0.99 | 41* | 0.9 | -3 | 34
CCOc1ccc(C2C=C(c3ccc(F)cc3)Nc3ncnn32)cc1 (stereo not drawn) | 2 | 9 | 11 | 0.98 | 31 | 0.89 | -14 | 8
CN(C)c1nc(-c2ccccc2)c2cnn(Cc3ccccc3)c2n1 | 28 | 18 | -17 | 0.72 | 35 | 1.2 | -3 | 26
O=c1oc2c(CN3CCOCC3)c(O)ccc2c2c1CCCC2 | 10 | 5 | 8 | 0.9 | -3 | 0.92 | -6 | -4
Cc1ccc(S(=O)(=O)Nc2ccccc2CNc2c(C)n(C)n(-c3ccccc3)c2=O)cc1 | -16 | 6 | -1 | 1.2 | 26 | 1 | 20 | 17
NCCS(=O)(=O)O | 8 | -9 | -4 | 0.92 | -34 | 1 | 10 | 7
CCn1c(=O)c(C(C)=O)nc2ccccc21 | -50 | 9 | 3 | 1.5 | 13 | 0.97 | -5 | 12
Oc1ccc2ccccc2c1C=NC12CN3CCN(CN(C3)C1)C2 | -5 | 8 | 8 | 1.1 | 6 | 0.92 | 10 | -2
O=C(O)C[C@@H](O)C(=O)O | -2 | 14 | -7 | 1 | 9 | 1.1 | -9 | 7
Cc1cccn2c(=O)c3cc(C#N)c(=O)n(CCCN4CCOCC4)c3nc12 | 2 | -5 | 5 | 0.98 | 6 | 0.95 | -6 | -10
COc1ccccc1NC(=O)c1cc2ccc(O)cc2o/c1=N\O | 13 | 4 | 8 | 0.87 | 5 | 0.92 | -30 | 12
CCN(CC)c1ccc2c(c1)OC(N)=C(C#N)C2c1cccnc1 (stereo not drawn) | 6 | 26 | 10 | 0.94 | 31 | 0.9 | -9 | 14
COC(=O)C1=CNC=C(C(=O)OC)C1c1ccc(Cl)cc1 | 7 | -10 | -17 | 0.93 | 8 | 1.2 | -17 | 14
CC1CN(CC(=O)N2CCc3[nH]c4ccccc4c3C2)CC(C)O1 (stereo not drawn) | -3 | 20 | -6 | 1 | -12 | 1.1 | 4 | 0
O=C(Cc1cc(=O)oc2cc(O)ccc12)NCC1CCC(C(=O)O)CC1 (stereo not drawn) | 7 | 11 | 6 | 0.93 | 10 | 0.94 | -2 | 5
Cc1cc(N2C(=O)CC(N3CCN(c4ccc(C(=O)c5cccs5)cc4)CC3)C2=O)no1 (stereo not drawn) | -10 | 14 | 8 | 1.1 | 8 | 0.92 | -21 | 12
Cc1cnc(NC(=O)c2ccc(-c3nc4ccccc4s3)o2)s1 | 2 | 21 | 11 | 0.98 | 30 | 0.89 | -14 | 35
Cc1nn(C)c(C)c1N=Cc1c(O)ccc2ccccc12 | -22 | 2 | 7 | 1.2 | 16 | 0.93 | 3 | 36
CCCCC(CC)Cn1c(N)c(C#N)c2nc3ccccc3nc21 (stereo not drawn) | 17 | 4 | 2 | 0.83 | 30 | 0.98 | -7 | 25
Cc1cccn2c(=O)c3cc(C#N)c(=NC(=O)c4ccncc4)n(CCCOC(C)C)c3nc12 | -6 | 15 | -2 | 1.1 | 14 | 1 | -4 | 0
COc1ccc(C2C(C#N)=C(N)Oc3cc(O)ccc32)cc1OC (stereo not drawn) | 11 | 4 | -1 | 0.89 | -3 | 1 | -6 | -1

# Part of the list above, with two lines to a compound.
# Values run as follows: hIAP block	NALP3 yeast inh	mIAP block	hIAP activ	tim10-1 inh	mIAP act	ATG4B inh	TIM10 inh
- CCOc1ccc(C2C=C(c3ccc(F)cc3)Nc3ncnn32)cc1 (stereo not drawn)
→ 2	9	11	0.98	31	0.89	-14	8
- CN(C)c1nc(-c2ccccc2)c2cnn(Cc3ccccc3)c2n1
→ 28	18	-17	0.72	35	1.2	-3	26
- O=c1oc2c(CN3CCOCC3)c(O)ccc2c2c1CCCC2
→ 10	5	8	0.9	-3	0.92	-6	-4
- Cc1ccc(S(=O)(=O)Nc2ccccc2CNc2c(C)n(C)n(-c3ccccc3)c2=O)cc1
→ -16	6	-1	1.2	26	1	20	17
- NCCS(=O)(=O)O
→ 8	-9	-4	0.92	-34	1	10	7
- CCn1c(=O)c(C(C)=O)nc2ccccc21
→ -50	9	3	1.5	13	0.97	-5	12
- Oc1ccc2ccccc2c1C=NC12CN3CCN(CN(C3)C1)C2
→ -5	8	8	1.1	6	0.92	10	-2
- O=C(O)C[C@@H](O)C(=O)O
→ -2	14	-7	1	9	1.1	-9	7
- Cc1cccn2c(=O)c3cc(C#N)c(=O)n(CCCN4CCOCC4)c3nc12
→ 2	-5	5	0.98	6	0.95	-6	-10
- COc1ccccc1NC(=O)c1cc2ccc(O)cc2o/c1=N\O
→ 13	4	8	0.87	5	0.92	-30	12
- CCN(CC)c1ccc2c(c1)OC(N)=C(C#N)C2c1cccnc1 (stereo not drawn)
→ 6	26	10	0.94	31	0.9	-9	14
- COC(=O)C1=CNC=C(C(=O)OC)C1c1ccc(Cl)cc1
→ 7	-10	-17	0.93	8	1.2	-17	14
- CC1CN(CC(=O)N2CCc3[nH]c4ccccc4c3C2)CC(C)O1 (stereo not drawn)
→ -3	20	-6	1	-12	1.1	4	0
- O=C(Cc1cc(=O)oc2cc(O)ccc12)NCC1CCC(C(=O)O)CC1 (stereo not drawn)
→ 7	11	6	0.93	10	0.94	-2	5
- Cc1cc(N2C(=O)CC(N3CCN(c4ccc(C(=O)c5cccs5)cc4)CC3)C2=O)no1 (stereo not drawn)
→ -10	14	8	1.1	8	0.92	-21	12
- Cc1cnc(NC(=O)c2ccc(-c3nc4ccccc4s3)o2)s1
→ 2	21	11	0.98	30	0.89	-14	35
- Cc1nn(C)c(C)c1N=Cc1c(O)ccc2ccccc12
→ -22	2	7	1.2	16	0.93	3	36
- CCCCC(CC)Cn1c(N)c(C#N)c2nc3ccccc3nc21 (stereo not drawn)
→ 17	4	2	0.83	30	0.98	-7	25
- Cc1cccn2c(=O)c3cc(C#N)c(=NC(=O)c4ccncc4)n(CCCOC(C)C)c3nc12
→ -6	15	-2	1.1	14	1	-4	0
- COc1ccc(C2C(C#N)=C(N)Oc3cc(O)ccc32)cc1OC (stereo not drawn)
→ 11	4	-1	0.89	-3	1	-6	-1

# (more compounds)
Compound | hIAP block | NALP3 yeast inh | mIAP block | hIAP activ | tim10-1 inh | mIAP act | ATG4B inh | TIM10 inh
O=c1c2cc(N3CCOCC3)ccc2[nH]c(=S)n1CCCN1CCCC1 | -14 | 13 | 6 | 1.1 | 1 | 0.94 | -6 | -3
COc1ccc(OC)c(NC=C2C(=O)OC(C)(C)OC2=O)c1 | -15 | 12 | 0 | 1.2 | 29 | 1 | 5 | 6
CO[C@@]12[C@H](COC(N)=O)C3=C(C(=O)C(C)=C(N)C3=O)N1C[C@@H]1N[C@@H]12 | 16 | -11 | -4 | 0.84 | -1 | 1 | -3 | 6
O=c1[nH]cnc2c1ncn2[C@H]1CC[C@@H](CO)O1 | -45 | 11 | -15 | 1.5 | 21 | 1.2 | 4 | 3
COc1ccc(OC)c(NC=C2C(=O)OC3(CCCCC3)OC2=O)c1 | -3 | 6 | -2 | 1 | 32 | 1 | -22 | 20
O=C(C1CCN(c2ccc(N3CCOCC3)nn2)CC1)N1CCc2ccccc2C1 | -11 | -3 | 3 | 1.1 | 6 | 0.97 | -4 | 8
COCCn1nnnc1CN(CCc1ccc(OC)c(OC)c1)Cc1cc2ccc(C)cc2[nH]c1=O | 0 | -10 | 2 | 1 | 3 | 0.97 | -8 | 4
CC(C)CCNC(=O)c1cnn2c(C(F)(F)F)cc(-c3ccco3)nc12 | 12 | 34 | -2 | 0.89 | -22 | 1 | 7 | -7

# A portion from further up, for reference:
Compound | hIAP block | NALP3 yeast inh | mIAP block | hIAP activ | tim10-1 inh | mIAP act | ATG4B inh | TIM10 inh
O=c1c2cc(N3CCOCC3)ccc2[nH]c(=S)n1CCCN1CCCC1 | -14 | 13 | 6 | 1.1 | 1 | 0.94 | -6 | -3
COc1ccc(OC)c(NC=C2C(=O)OC(C)(C)OC2=O)c1 | -15 | 12 | 0 | 1.2 | 29 | 1 | 5 | 6
